Screening data from PubChem.
Insulin prom inh = inhibitors of insulin promoter-driven GFP, primary screen, imaging, TRM-6 cells (human fetal islet line), eGFP reporter, cell count. reporter expression induced with tamoxifen. inhibition, % at 2 µM. 130,000 tested, 0.9% active. AID 1273, 2008;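 active = inhibition above the mean plus 3 SD, with well images judged a real hit on visual review, cut at about 60% in these data, passing the limit was not always enough; inconclusive = inhibition over the cutoff but images rejected on review; inactive = inhibition not above the cutoff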
GALR2 agonist = GALR2 receptor agonists, primary screen, cell-based | Galanin receptor type 2 (Homo sapiens), O43603 | GALR2-expressing cells, agonist activation read-out | activation, %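 (tested at 5 µM)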 | 140,000 tested, 0.48% active;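 active = above mean plus 3 SD of all compounds, about 5% in these data, not always enough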;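 also: 0% = vehicle buffer wells and 100% = reference agonist at full effect; tested in CHO reporter cells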
Target sequence (O43603 whole entry, looked up): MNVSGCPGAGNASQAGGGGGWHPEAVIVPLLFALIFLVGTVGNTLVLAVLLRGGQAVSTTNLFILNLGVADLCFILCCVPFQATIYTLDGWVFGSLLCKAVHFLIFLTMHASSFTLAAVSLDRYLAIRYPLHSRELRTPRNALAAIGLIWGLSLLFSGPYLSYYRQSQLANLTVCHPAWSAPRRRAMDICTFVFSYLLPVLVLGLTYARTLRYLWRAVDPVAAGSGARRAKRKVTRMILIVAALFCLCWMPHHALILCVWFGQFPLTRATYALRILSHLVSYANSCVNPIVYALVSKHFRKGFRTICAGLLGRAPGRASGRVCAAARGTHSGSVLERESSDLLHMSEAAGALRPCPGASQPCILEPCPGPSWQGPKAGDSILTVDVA
HSV augment = enhancers of HSV replication in host cells, fold increase, host cell viability. AID 1956, 2009. maximum fold increase. HSV replication augmentation in cells. 220,000 tested, 0.005% active;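 active = peak rise of 1.5-fold or more in the series; inconclusive = self-fluorescent or not available for retest; tested in PC3 cells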;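 also: first round at 10 µM; read as green reporter fluorescence; hits show the peak of a series up to 25 µM; 1 = signal of infected wells without compound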
PKD1 kinase inh = inhibitors of human PKD1 kinase, biochemical, fluorescence polarization; Serine/threonine-protein kinase D1 (Homo sapiens), Q15139; PKD1 kinase fluorescence polarization assay; inhibition, %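 (about 10 µM by stock and volumes)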; 200,000 tested, 0.056% active; AID 797, 2007;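 active = inhibition of 50% or more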;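 also: controls were vehicle for no effect and a reference inhibitor for full effect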
RGS16-Gao HTS = modulators of RGS16 binding to Galphao, primary screen, biochemical, human proteins, multiplexed bead flow cytometry | bead-based flow cytometry RGS16-Galphao binding, fluorescence; actives lie on both sides | binding response (% of control), % at 10 µM | 220,000 tested, 0.38% active | AID 1441, 2008;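 active = below 25% or above 175%, edge rows of some plates excepted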;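 also: Galphao activated by GDP with aluminum fluoride before binding; 100% = wells without compound and 0% = beads without RGS; some results beyond the cut were filed as inactive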
Target sequence (O15492 whole entry, looked up): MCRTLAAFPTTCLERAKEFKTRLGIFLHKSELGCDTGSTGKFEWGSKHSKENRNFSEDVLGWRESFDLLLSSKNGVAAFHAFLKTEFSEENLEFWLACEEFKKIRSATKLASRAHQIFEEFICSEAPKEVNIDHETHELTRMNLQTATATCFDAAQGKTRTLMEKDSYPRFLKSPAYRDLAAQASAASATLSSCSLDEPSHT
Target sequence (P09471 whole entry, looked up): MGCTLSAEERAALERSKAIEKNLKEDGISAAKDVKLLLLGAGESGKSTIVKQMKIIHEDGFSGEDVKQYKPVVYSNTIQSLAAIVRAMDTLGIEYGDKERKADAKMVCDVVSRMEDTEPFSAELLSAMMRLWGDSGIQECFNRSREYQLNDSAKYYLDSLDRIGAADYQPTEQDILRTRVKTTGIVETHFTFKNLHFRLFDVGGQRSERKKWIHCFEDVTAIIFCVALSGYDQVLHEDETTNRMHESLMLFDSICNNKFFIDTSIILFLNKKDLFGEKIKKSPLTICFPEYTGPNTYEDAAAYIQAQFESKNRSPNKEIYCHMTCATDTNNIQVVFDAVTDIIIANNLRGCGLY
Insulin prom inh cell count = also measured in Insulin prom inh; calls as there; normalized cell count, %; measured here: cell count, toxicity; reference of the scale not given here;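 cells exposed to compound for 48 h; stained nuclei by imaging scaled within each plate; lower means fewer cells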
HSV augment primary fold = second read-out of HSV augment, no call of its own (marks repeat the call); fold increase; compound at 10 µM; measured here: primary screen fold increase 10 uM; tested in PC3 cells;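 GFP signal in the first replicate; 1 = infected wells without compound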
* = called active by the depositor; i = inactive; u = inconclusive; x = no result given; & = joins results of further samples; [ ] = remark or other dose.

Start of the listing, in advance, two compounds:
Structure	Insulin prom inh	Insulin prom inh cell count	GALR2 agonist	HSV augment	HSV augment primary fold	PKD1 kinase inh	RGS16-Gao HTS
COc1cc(C(=O)NCCC(=O)NCCN2CCOCC2)cc(OC)c1OC	x	x	-0.9	i	1.5	0	101
CCN(CC)C(=O)CSc1nnc(CCN)o1	-44	115	-0.9	i	0.96	-12	104

The list itself, previewed entries included:
Structure	Insulin prom inh	Insulin prom inh cell count	GALR2 agonist	HSV augment	HSV augment primary fold	PKD1 kinase inh	RGS16-Gao HTS
COc1cc(C(=O)NCCC(=O)NCCN2CCOCC2)cc(OC)c1OC	x	x	-0.9	i	1.5	0	101
CCN(CC)C(=O)CSc1nnc(CCN)o1	-44	115	-0.9	i	0.96	-12	104
O=C(NCc1ccco1)C(C(=O)c1ccc(F)cc1)n1ccccc1=O (centres undefined)	20	117	-1.6	i	0.89	-17	95
O=C1C2C3C=CC(C3)C2C(=O)N1c1ccncc1 (centres undefined)	0	111	-1.8	x	x	-5	100
COc1ccc(N2CCN(CC(=O)NC(=O)NCc3ccco3)CC2)cc1	3	113	-1.0	i	1.2	-3	98
Cc1cccc(NC(=O)CC23CC4CC(C2)CC(n2nnc(C)n2)(C4)C3)c1	-3	106	-1.1	i	1	-2	89
Cc1ccc(-n2nc3ccc(NC(=O)c4ccc5c(c4)OCO5)cc3n2)cc1	-26	281	-2.3	i	1	-4	95
O=C(NCC(=O)N1CCN(S(=O)(=O)/C=C/c2ccccc2)CC1)c1ccccc1F	-20	45	x	i	0.97	-1	104
N/C(=N\OC(=O)c1ccc(Cl)cc1)c1cccnc1	-17	107	-0.2	x	x	-3	95
CC(=O)N1CC2(NC(=O)c3ccccc3N2)c2ccccc21 (centres undefined)	x	x	x	x	x	-2	98
Cc1cc(C)nc(NS(=O)(=O)c2ccc(NC(=O)CN3C(=O)c4ccccc4C3=O)cc2)n1	x	x	-1.2	x	x	-3	98
CCOc1cccc(OCCCNCCCOC)c1	-15	101	-4.4	i	0.91	-3	98
O=C(OCC(O)C(O)COC(=O)c1ccccc1)c1ccccc1 (centres undefined)	x	x	-0.2	i	0.92	-7	99
Cc1ccc(C(C(=O)NC2CCCCC2)N(C(=O)c2csnn2)C2CCCC2)o1 (centres undefined)	-86	102	-1.0	i	0.93	7	87
COc1cc(NC(=O)Cc2cccs2)c(C(=O)O)cc1OC	x	x	x	i	1.5	1	103
Cc1cc(Oc2ccccc2)nc(SCC(=O)Nc2ccc(Cl)cc2Cl)n1	43	77	-1.8	i	0.86	0	94
CC(=O)Nc1cccc(NC(=O)C2CCCN2C(=O)Nc2cccc(F)c2)c1 (centres undefined)	7	132	0.0	i	1	-1	94
CC(=O)Nc1ccccc1C(=O)C(=O)Nc1ccccc1	x	x	-0.7	i	0.94	-1	96
Cc1c(Cl)cccc1NC(=S)Nc1ccc2[nH]c(=O)[nH]c2c1	x	x	x	i	0.88	x	102
Cc1nn(C)c(C)c1/C=C/C(=O)O	-7	114	x	i	0.9	-8	104
CSCCC(NS(=O)(=O)c1cc(C(=O)O)ccc1Cl)C(=O)O (centres undefined)	-18	89	x	i	0.88	-5	100
Cc1cccc(C)c1NC(=O)CN(C)C(=O)/C=C/c1cccs1	-48	201	-0.6	i	0.93	2	107
COc1ccccc1N1C(C)=CC(=C(C#N)c2nc3ccccc3s2)C=C1C	x	x	-0.9	u	x	-5	108
CC(C)CCNC(=O)CNC(=S)N(CCCN1CCOCC1)Cc1cccs1	-6	126	0.2	i	0.97	-4	105
COc1cccc(/C=N/n2c(-c3cc(C)[nH]n3)n[nH]c2=S)c1OC	x	x	x	i	0.84	x	98
O=C(COc1ccc(Cl)cc1Cl)NCC(=O)N/N=C/c1c[nH]c2ccccc12	-14	70	-0.1	i	0.98	-6	99
O=C1CC(N2CCN(c3ccc(S(=O)(=O)N4CCCC4)cc3)CC2)C(=O)N1c1ccc(F)cc1 (centres undefined)	31	171	-3.6	i	0.92	8	101
Cc1cc(C)n2c(nc3ccccc32)c1C(=O)NN	x	x	x	i	0.9	x	99
CCOc1ccccc1C1CC(=O)NC2=C1C(=O)CC(C)(C)C2 (centres undefined)	x	x	-1.3	i	0.95	0	109
O=c1[nH]c(=O)n(C2CCCO2)cc1Br (centres undefined)	56	149	-1.5	i	0.95	-5	110
COc1ccc([N+](=O)[O-])cc1N(CC(=O)O)S(C)(=O)=O	x	x	x	i	0.88	2	101
COc1ccc(/C=C/C(=O)c2ccc(Cl)cc2)c(OC)c1	x	x	-2.0	i	1.1	1	101
CCN(CC)CCOC(=O)c1cccc(OC)c1	-27	63	-0.2	i	1	-12	109
Cc1cc2cc(CN(CC3CCCO3)C(=S)NCc3ccco3)c(=O)[nH]c2cc1C (centres undefined)	30	89	-1.3	i	0.9	-9	99
Clc1ccc(/C=N/NC2=Nc3cccc4cccc2c34)cc1	x	x	0.3	u	x	-8	99
COc1cccc2cc(C(=O)OCC(=O)NCc3ccc4c(c3)OCO4)c(=O)oc12	x	x	x	i	1.1	x	107
C/C(=C/C(=O)N1CCc2ccccc21)C(=O)O	-33	89	0.0	i	1.1	2	111
Cc1ccc(C(=O)CNc2cccc(Cl)c2)cc1	57	95	-2.3	i	1.1	-3	96
COc1ccc(-n2cc(CN3CCC(OC)CC3)c(-c3cccc(F)c3)n2)cc1	x	x	x	i	0.86	-3	92
Fc1cccc(NC(=S)NCc2ccccc2Cl)c1	x	x	x	i	0.97	x	101
Cc1ccc(/C=C/C(=O)O)cc1S(=O)(=O)NCCCO	-19	105	-2.4	i	0.94	-5	98
Cn1nnnc1SCC(=O)N1CCN(C(=O)c2ccco2)CC1	17	127	x	i	0.98	-3	105
Cc1ccc(-c2nc(CN(C)C(C3CC3)C3CC3)c(C)o2)cc1	x	x	x	i	0.97	2	111
O=C1c2ccccc2-c2ncnc3cccc1c23	-40	112	-3.6	x	x	-7	x
COc1ccc(C2=C(C=Nc3c(C)n(C)n(-c4ccccc4)c3=O)C(c3ccccc3C)c3ccccc3O2)cc1OC (centres undefined)	51	82	-1.0	i	0.93	-11	102
O=C(CNc1cccc2ccccc12)N/N=C/c1ccc(C(=O)O)cc1	30	104	-2.6	i	1.1	-13	100
COc1ccc(S(=O)(=O)NCCSCc2cccs2)cc1	-159	34	-2.0	i	1.1	-13	106
CC(C)(O)C#Cc1ccc(C(=O)N2CCN(c3ccc(F)cc3)CC2)cc1	-15	99	x	i	0.98	0	106
C=CCNC(=O)NC(=O)COC(=O)c1ccccc1Sc1ccc(C(F)(F)F)cc1[N+](=O)[O-]	x	x	-2.2	i	0.85	-7	184*[activator]
O=C(c1ccccc1)c1ccc(OCCCN2CCCC2)cc1	-34	140	1.5	i	0.92	-8	107
O=C(NNc1cccc(Cl)n1)c1ccccc1CC[N+](=O)[O-]	-18	151	x	i	1.1	0	116
OC1CCCN(Cc2ccc3ccc4cccc5ccc2c3c45)C1 (centres undefined)	16	68	0.6	i	0.57	0	104
COc1ccc2nc(Nc3ccccc3OC)sc2c1	-5	180	x	i	0.93	-2	66
Cc1ccn2c(CN(C)CCn3nc(C)cc3C)c(C(=O)N3CCCCCC3)nc2c1	x	x	x	i	0.91	-2	87
Cc1cccc(/C(N)=N/OC(=O)COc2ccc(Cl)c(C)c2)c1	-75	63	0.6	x	x	-5	101
C=CCNC(=S)N/N=C(\C)c1ccc(-n2ccnc2)cc1	50	119	x	i	0.93	-11	105
COC(=O)c1sc2ccccc2c1-n1cccc1C(=O)C(=O)Nc1ccc(Cl)cc1	-8	159	-3.5	i	0.98	-5	86
O=C(NN1C(=O)/C(=C/C=C/c2ccccc2)SC1=S)c1ccncc1	x	x	x	i	1.1	4	101
Cn1cc(CN2CCN(CCO)CC2)c(-c2ccc(Oc3ccccc3)cc2)n1	x	x	x	i	1	-4	145
COc1ccc(C(=O)NCc2cn3cccc(C)c3n2)cc1OC	x	x	-1.6	i	0.79	-8	110

(continued)
Structure	Insulin prom inh	Insulin prom inh cell count	GALR2 agonist	HSV augment	HSV augment primary fold	PKD1 kinase inh	RGS16-Gao HTS
CCC(C)NS(=O)(=O)c1ccc(OCC(=O)NCc2ccc3c(c2)OCO3)cc1 (centres undefined)	0	154	-0.5	i	0.98	-7	98
O=C(c1ccc2nc(N3CCCCC3)sc2c1)N1CCN(Cc2ccc3c(c2)OCO3)CC1	20	133	-0.4	i	0.99	-14	74
Cc1oc(-c2cc(F)ccc2F)nc1CN1CCN(c2cnccn2)CC1	x	x	x	i	1	1	95
CCCC(=O)Nc1c(-c2cccs2)c(=O)c2ccccc2n1CC	-21	184	-0.9	x	x	-7	99
COC(=O)c1sc2nc(N3CCCCC3)c3c(c2c1N)CCCC3	10	106	-1.0	i	0.9	-6	101
Cc1ccc(-n2c(SCC(=O)NC3CCCCC3)nc3c(c2=O)SCC3)cc1	x	x	-0.6	i	1	-4	102
Cc1cc([N+](=O)[O-])ccc1NC(=O)C[n+]1ccc(N(C)C)cc1	15	93	x	i	0.98	0	98
C=CCN(C(=O)Cn1c(C(=O)OC)cc2oc(C)cc21)c1ccccc1	x	x	-1.6	i	1.2	5	158
O=C(c1ccccc1)c1cc[n+]([O-])cc1	43	104	-1.7	i	1	-6	80
CCCOc1ccc(NC(=O)CC2C(=O)N(CC)C(=S)N2CCNC(C)=O)cc1 (centres undefined)	-72	110	-0.2	i	0.96	1	101
O=C(O)CC(Cn1cnnn1)c1ccccc1 (centres undefined)	x	x	0.3	i	1	-6	108
O=C(c1ccccc1)N1CCN(C(=O)c2ccc([N+](=O)[O-])cc2)CC1	x	x	-1.1	x	x	0	99
O=C(CSc1ncnc2c1oc1ccccc12)NCc1ccco1	-20	226	-0.4	i	0.9	-10	98
Cc1ccc(-n2cc(CNC(C)c3cnn(C)c3C)c(-c3ccc(F)cc3)n2)cc1 (centres undefined)	x	x	x	i	0.86	-3	94
CCOc1cc(C(=O)NC)cc(OCC)c1OCC	-21	145	-1.3	i	0.99	-13	50
O=C(CCC1CCCN(c2ncccn2)C1)NCc1ccccc1F (centres undefined)	x	x	x	i	1.1	-9	94
CC1CCc2cc(F)ccc2N1C(=O)c1cnc2sccn2c1=O (centres undefined)	x	x	-3.9	i	0.74	13	103
CC(=O)c1cccc(S(=O)(=O)N2CCC(n3nnc4cc(F)ccc43)CC2)c1	11	65	-1.1	i	0.77	-8	101
CCCCC(=O)NNC(=O)c1c(O)c2ccccc2[nH]c1=O	x	x	x	i	0.93	x	100
Cc1ncc([N+](=O)[O-])n1CCO	14	97	-1.4	i	0.74	-17	69&96
S=C(Nc1ccc(Cl)cc1)c1nc2ccccc2s1	x	x	-3.3	i	0.9	-8	105
Cc1ccnc(SCC(=O)n2c3c(c4ccccc42)CC(C)CC3)n1 (centres undefined)	x	x	-1.8	i	0.89	1	106
Cc1ccc2[nH]c(=O)c(CN(CCc3ccccc3)C(c3nnnn3Cc3ccco3)C(C)C)cc2c1 (centres undefined)	x	x	x	i	1.1	x	100
CCn1nc(C(=O)OCC(=O)N2CC(=O)Nc3ccccc32)c2ccccc2c1=O	x	x	x	i	0.93	-9	101
CN=c1scc(C)n1/N=C/c1cc(Br)c(O)c(Br)c1	x	x	x	i	1	11	104
S=C(c1ccc(-c2ccc(Br)cc2)o1)N1CCCCC1	-41	112	x	i	0.95	-6	100
Nc1nonc1-n1nnc(C(=O)N/N=C/c2ccc(O)cc2)c1COc1ccc(F)cc1	x	x	x	i	0.92	x	99
CCOC(=O)C1(Cc2ccccc2C)CCCN(C(=O)c2cc(C3CC3)[nH]n2)C1 (centres undefined)	x	x	x	i	1.1	4	98
CC(=O)Nc1ccc(S(=O)(=O)N[C@@H](C)C(=O)Nc2ccc(N3CCOCC3)cc2)cc1	-57	62	-0.1	i	0.89	-3	103
O=C(CSc1ccccc1)NCCCc1ccccc1	x	x	x	i	1.1	0	98
